# Screening results deposited in PubChem by several laboratories.
# AF4-AF9 inh = blocks AF4 peptide binding to human AF9. P42568. AlphaScreen, biotin-AF4 peptide binding to FLAG-AF9. inhibition, % at 10 µM. 0.47% of 350,000 active;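 active = every replicate reaching a set inhibition limit, whatever the replicate mean, cut at about 25% in these data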;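 also: 0% = plate neutral control median and 100% = total signal loss; the record names both 10 and 1 µM as test concentration; the first replicate is given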
# Target sequence (P42568 whole entry, looked up): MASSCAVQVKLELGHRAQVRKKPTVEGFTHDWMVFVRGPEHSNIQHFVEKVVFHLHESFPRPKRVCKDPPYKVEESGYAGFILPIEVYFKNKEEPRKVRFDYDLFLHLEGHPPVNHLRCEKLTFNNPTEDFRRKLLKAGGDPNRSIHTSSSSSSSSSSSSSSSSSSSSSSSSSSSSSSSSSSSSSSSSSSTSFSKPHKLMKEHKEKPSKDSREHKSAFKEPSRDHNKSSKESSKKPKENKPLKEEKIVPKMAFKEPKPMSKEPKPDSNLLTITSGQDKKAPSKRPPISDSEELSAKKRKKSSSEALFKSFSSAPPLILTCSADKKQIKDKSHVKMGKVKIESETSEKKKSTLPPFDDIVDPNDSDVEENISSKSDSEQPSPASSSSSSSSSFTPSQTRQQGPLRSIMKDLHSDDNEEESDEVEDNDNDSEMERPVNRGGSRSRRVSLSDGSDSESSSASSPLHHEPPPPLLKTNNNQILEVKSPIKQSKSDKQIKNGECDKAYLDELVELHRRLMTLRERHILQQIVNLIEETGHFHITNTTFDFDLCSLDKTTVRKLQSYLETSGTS
# UCH37 inh = human UCH37 deubiquitinating enzyme inhibition; AID 588478; purified proteasome/UCH37, Ub-AMC cleavage fluorescence; Q9Y5K5; inhibition, % (no concentration beside the values); 0.33% of 330,000 active;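 active = mean of two replicates above 20%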;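 also: 0% = compound-free wells with enzyme and 100% = wells lacking proteasome; stock transfer was 100 nL into about 20 µL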
# Target sequence (Q9Y5K5 whole entry, looked up): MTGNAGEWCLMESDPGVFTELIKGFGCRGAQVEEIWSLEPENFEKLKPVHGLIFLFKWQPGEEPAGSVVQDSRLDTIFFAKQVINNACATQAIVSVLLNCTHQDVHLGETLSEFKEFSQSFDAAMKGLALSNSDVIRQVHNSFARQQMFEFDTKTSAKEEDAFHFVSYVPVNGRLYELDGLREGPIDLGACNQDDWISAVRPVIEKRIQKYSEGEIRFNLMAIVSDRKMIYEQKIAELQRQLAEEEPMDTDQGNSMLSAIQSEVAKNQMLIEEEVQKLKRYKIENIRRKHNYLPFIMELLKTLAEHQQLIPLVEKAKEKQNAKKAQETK
#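 Material: Human UCH37 enzyme supplied as purified proteasome complex | Schedule: 30 min compound-proteasome preincubation then 25 min substrate reaction, room temperature | Detection: AMC fluorescence from Ub-AMC cleavage, excitation 355 nm, emission 460 nm | Benchmarks: Wells without proteasome as full block, compound-free enzyme plus substrate as uninhibited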
# Beta apoptosis = beta cell apoptosis inhibition. INS-1E cytokine-induced death, ATP luminescence, 48 h; percent of positive-control rescue, neutral wells zero. protection from apoptosis, % (test concentration not listed). 0.8% of 300,000 active. AID 435005;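 active = all replicates at 75% or more, or half of them and the mean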;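 also: 0% = cytokine-treated negative control wells and 100% = positive control rescue; higher means more ATP so stronger rescue from cytokine killing; wells of about 40 µL received 100 nL stock; the first replicate is given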
# FGF22 binding = shifts melting point of recombinant human FGF22; recombinant FGF22 thermal shift, SYPRO orange fluorescence; percent of sucrose octasulfate shift, DMSO zero; calls only at 9.99 µM; 1.5% of 340,000 active; AID 651658;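 active = melting point raised past a set limit in the mean and every replicate; three in four hits are not shown here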
# Target sequence (Q9HCT0 whole entry, looked up): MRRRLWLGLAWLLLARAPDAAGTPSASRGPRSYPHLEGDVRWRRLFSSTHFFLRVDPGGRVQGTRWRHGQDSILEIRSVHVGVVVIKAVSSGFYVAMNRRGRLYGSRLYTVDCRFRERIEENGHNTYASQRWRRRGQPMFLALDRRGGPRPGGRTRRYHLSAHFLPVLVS
# Bfl-1 A1 inh = inhibitors of the anti-apoptotic protein A1, read as caspase activation. MEF A1-2A-BIM cells, Caspase-Glo 3/7 luminescence, 3 h; percent of clofoctol response, vehicle zero. caspase activation, % (concentration not given with the values). 0.066% of 330,000 active;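 active = over half of replicate activation scores above 10%, or exactly half above 10 with the replicate mean above 10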;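 also: wells of about 30 µL received 50 nL stock; many hits fall short of the cut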
# E coli growth = E. coli growth inhibition. Escherichia coli growth, OD600, 23 h; active compounds read low. OD600 absorbance (no concentration beside the values). 0.21% of 330,000 active. AID 1053175;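 active = OD600 absorbance below the run mean of sample wells minus 3.6 SD, in any replicate, cut at about 0.56 in these data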;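 also: stock transfer was 300 nL into about 60 µL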
# T cruzi repl = T. cruzi replication inhibition; T. cruzi beta-gal in NIH3T3, luminescence, 90 h; inhibition, % (concentration not given with the values); 1.4% of 300,000 active; AID 1885;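 active = mean inhibition across valid replicates above about 55%, limit read from the data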;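 also: signal also drops with host cell toxicity which is not excluded here; 0% = plate median of DMSO wells and 100% = zero luminescence signal; higher percent means less beta-gal luminescence so fewer parasites; stock transfer was 50 nL into about 50 µL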
# rRNA inh HTS = selective bacterial rRNA inhibition in E. coli | E. coli WT GFP vs humanized-ribosome RFP mutants, fluorescence, 24 h; active compounds read low; DMSO median 0, no signal -100 | GFP signal change (wild-type ribosome), % (concentration not given with the values) | 1.6% of 350,000 active;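 active = significant combined selectivity score with lowered wild-type GFP, culture density cut under 30%, mutant RFP and density less affected; inactive = any of these conditions unmet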; also: one replicate is shown; some compounds called inactive have numbers as strong as hits
# rRNA inh HTS OD600 = also measured in rRNA inh HTS; calls as there; OD600 change, %; measured here: OD600 growth;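 optical density of the mix in the first replicate; 0 = DMSO median and -100 = no signal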
# rRNA inh HTS RFP = second read-out of rRNA inh HTS, no call of its own (marks repeat the call); RFP signal change, %; measured here: RFP humanized mutant strains;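 first replicate; 0 = DMSO median and -100 = no signal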
# Numbers without * were called inactive; i = inactive; / = no result given. Only part of the results is shown; rates above refer to the full screens.
SMILES,AF4-AF9 inh,UCH37 inh,Beta apoptosis,FGF22 binding,Bfl-1 A1 inh,E coli growth,T cruzi repl,rRNA inh HTS,rRNA inh HTS OD600,rRNA inh HTS RFP
COc1ccc(Cl)cc1S(=O)(=O)Oc1ccc(NC(C)=O)cc1,/,-0.5,-9,/,-0.1,0.65,7,/,/,/
Cc1ccc2nc(SCC(=O)NCCCN3CCCC3=O)[nH]c2c1,0.5,3.9,2,i,-0.3,0.65,/,0,5,1.6
CC1Cc2nc(SCC(=O)Nc3ccc(F)cc3F)n(C)c(=O)c2S1 (centres undefined),/,7.4,-5,/,0.3,0.68,-8,/,/,/
CCN(CC)C(=O)CSc1nnc2c3ccccc3n(C)c2n1,-1.6,9.9,/,i,-1.4,0.71,-8,11,1,2.4
O=C(CSc1nccn(-c2cccc(F)c2)c1=O)Nc1ccc(Cl)cc1F,6.5,-3.1,-12,i,1.0,0.7,1,-3,-9,9.5
O=CN1CCN(C(=O)c2ccc(Br)o2)CC1,-1.6,0.0,-8,i,0.8,0.7,-12,20,8,0.8
CSc1ccccc1NC(=O)c1cc(-c2ccc3c(c2)OCO3)on1,-1.1,-1.5,2,i,-4.2,0.69,3,2,6,-3.2
CC1CCc2sc(C(=O)OC(C)C(=O)Nc3ncc(Cl)cc3Cl)cc2C1 (centres undefined),/,0.5,-2,/,-0.6,0.69,-6,/,/,/
Cc1cc(C)c(OCCCNC2CCCC2)c(Br)c1,2.1,1.7,8,i,0.5,0.61,26,-18,-36,31
COC(=O)N1[C@H](C)C=C[C@]1(Cc1ccccc1)C(=O)NCCCNc1ncc(C(F)(F)F)cc1Cl,3.3,0.9,/,i,1.0,/,30,-10,-28,26
COc1cc(Br)cc2cc(C(=O)N3CCCCC3C)c(=O)oc12 (centres undefined),/,3.4,/,/,-0.2,0.69,-1,/,/,/
COc1ccccc1OCCNc1ccc(S(=O)(=O)N2CCCC2)cn1,0.8,-2.1,/,i,/,0.71,/,-9,-6,-5.3
Cc1cccc(N2CCN(C(=O)C(NS(=O)(=O)c3cccs3)c3ccccc3)CC2)c1C (centres undefined),/,1.4,13,/,0.4,0.69,-10,/,/,/
COc1ccccc1N1CCN(C(=O)c2cccc(C(=O)N3CCN(c4ccccc4OC)CC3)c2)CC1,0.1,/,-2,i,0.5,/,-13,-20,-20,-1.0
Nc1cccc(-c2nc3ccccc3[nH]2)c1,/,-71,7,/,-11,0.71,1,/,/,/
O=C(Cc1cccs1)Nc1ccccc1-c1nc2ccccc2[nH]1,/,-94,7,/,-0.1,0.71,8,/,/,/
CC1=C(Sc2nc3ccccc3[nH]2)C(=O)NC(C)(C)C1,/,5.4,/,/,-1.1,0.71,-14,/,/,/
COCCNC(=O)C(c1ccc(OC)cc1)N(CCOC)C(=O)CCC(=O)Nc1nccs1 (centres undefined),0.1,-0.6,-5,i,-0.2,0.7,-11,6,8,0.3
Cc1ccc(NC(=O)CCC(=O)OCC(=O)c2ccc(-c3ccccc3)cc2)cc1,/,1.5,-2,/,-0.8,0.68,-11,/,/,/
CCCN1CCN(CCCNC(=O)CCCn2nc(C)c3sc4ccccc4c3c2=O)CC1,-0.2,-1.1,0,i,4.4,0.72,14,-6,-9,-1.6
O=C(NNC(=O)c1ccc2c(=O)n3c(nc2c1)CCC3)c1cccc(Cl)c1,-0.6,-3.2,/,i,0.3,0.64,4,0,-1,0.4
COc1ccc(-c2csc(Nc3cc(C)ccn3)n2)cc1C,-1.1,2.0,1,i,-0.9,0.64,16,0,-2,-2.0
COC(=O)c1ccc(Cn2cnc3c(cnn3-c3ccc(C)c(C)c3)c2=O)o1,1.2,-1.0,6,i,0.9,0.71,-9,10,9,1.6
CCOCCCNC(=O)c1ccc(N2CCOCC2)c(NS(=O)(=O)c2ccc(OC)cc2)c1,0.3,0.1,-2,i,0.3,0.71,-26,-8,-14,0.4
NC(=O)c1c(NC(=O)c2ccc([N+](=O)[O-])o2)sc2c1CCCC2,1.0,0.5,-10,i,-0.1,0.64,1,-2,2,-3.1

# 3 compounds already listed, arranged by the value under rRNA inh HTS, highest first:
SMILES	AF4-AF9 inh	UCH37 inh	FGF22 binding	rRNA inh HTS	rRNA inh HTS OD600	rRNA inh HTS RFP
Cc1ccc2nc(SCC(=O)NCCCN3CCCC3=O)[nH]c2c1	0.5	3.9	i	0	5	1.6
O=C(CSc1nccn(-c2cccc(F)c2)c1=O)Nc1ccc(Cl)cc1F	6.5	-3.1	i	-3	-9	9.5
CCOCCCNC(=O)c1ccc(N2CCOCC2)c(NS(=O)(=O)c2ccc(OC)cc2)c1	0.3	0.1	i	-8	-14	0.4

# The listing continues:
SMILES,AF4-AF9 inh,UCH37 inh,Beta apoptosis,FGF22 binding,Bfl-1 A1 inh,E coli growth,T cruzi repl,rRNA inh HTS,rRNA inh HTS OD600,rRNA inh HTS RFP
O=C(CSc1nc2ncccc2[nH]1)NC1CCCCC1,-7.8,-1.0,-1,i,-0.4,0.67,-11,6,14,0.8
Cc1ccc(Cl)cc1N1C(=O)CC(Sc2ncccn2)C1=O (centres undefined),-2.0,1.5,-5,i,0.6,0.67,0,14,8,-0.5
C#CCOCCOCCOCCNc1nc(N2CCN(C(=O)[C@H](CCCN=C(N)N)n3cc(C(N)[C@@H](C)CC)nn3)CC2)nc(N2CCN(C(=O)[C@H](CCC(=O)O)n3cc([C@@H](N)CC(N)=O)nn3)CC2)n1 (some centres undefined),1.6,1.6,14,i,0.1,0.65,/,7,4,1.5
COC(=O)c1ccc(-c2n[nH]c(=O)c3ccccc23)cc1,/,-1.7,-6,/,1.0,0.72,-13,/,/,/
COC(=O)c1sc(S(=O)(=O)NC(C)C(=O)O)c(C(=O)OC)c1C (centres undefined),-0.8,3.1,-7,/,1.0,0.67,-15,15,4,4.3
Cc1cccc(C)c1OCC(=O)OCC(=O)Nc1ccc(Cl)cn1,-0.7,0.7,0,i,2.0,0.69,/,8,11,-0.6
O=C(CN(c1ccc2c(c1)OCCO2)S(=O)(=O)c1ccccc1)NCC1CCCO1 (centres undefined),/,-0.7,-5,/,0.3,0.73,4,/,/,/
Cc1cc(SCC(=O)N(C)CC(=O)Nc2ccc(F)cc2)nc2ccccc12,/,3.4,-3,/,-0.7,0.67,3,/,/,/
O=C(Nc1nnc(Cc2ccc(Cl)cc2)s1)c1cccs1,/,1.7,2,/,-0.2,0.73,-31,/,/,/
CCN(C(=O)/C=C/c1ccccc1)C1CCCCC1,1.7,1.5,-3,i,-0.5,0.67,4,-24,-34,-15
CCOC(=O)Cc1csc(NC(=O)COc2ccc(C)c(C)c2)n1,3.2,1.9,-6,i,0.2,0.66,4,-10,-9,0.7
Cc1ccc2c(CSc3nncn3C)cc(=O)oc2c1C,-14,5.8,-1,i,0.0,0.71,-8,19,14,1.5
O=C(Cn1nc(-c2cccc(Cl)c2)ccc1=O)Nc1cccnc1,/,1.7,-4,/,0.2,0.72,-5,/,/,/
CCOC(=O)N1c2ccccc2Sc2ccccc21,0.3,-0.6,3,i,0.0,0.7,-6,-38,-46,-13
CN(CC1CCCN(CCc2ccccc2F)C1)C(=O)c1ccoc1 (centres undefined),-1.2,4.1,-1,i,-1.2,0.65,31,14,18,-1.7
CCOc1ccc(NS(=O)(=O)c2ccc(NC(=O)c3cccnc3)c(OC)c2)cc1,1.8,0.6,4,i,1.0,0.7,5,-15,-16,5.3
CCCNC(=O)C(=O)N/N=C/c1ccc(OCc2ccccc2)cc1,0.8,/,-7,i,-0.8,/,-4,2,-2,-2.1
COc1ccccc1NC(=S)NCCc1c[nH]c2ccccc12,/,3.8,-1,/,1.7,0.76,14,/,/,/
CCCn1c2ccccc2c2nnc(SCC(=O)Nc3nnc(CC(=O)OCC)s3)nc21,/,1.3,3,/,-0.6,0.71,-7,/,/,/
O=C(Nc1ccc(Cc2ccncc2)cc1)c1cccc([N+](=O)[O-])c1,-1.0,5.0,-3,i,-0.3,0.67,-4,2,5,3.7
CCOC(=O)C1=C(CN2CCC(C)CC2)NC(=O)NC1c1ccc(Cl)cc1 (centres undefined),-6.1,2.2,-6,i,0.7,0.69,12,0,-4,-2.9
Cc1ccc(NC(=O)COc2ccccc2)c(NC(=O)c2ccco2)c1,-0.5,0.9,-2,i,-0.2,0.73,-4,-9,-9,-3.3
Cc1cccc(COc2ccccc2C(=O)N(C)CC(=O)Nc2cccc(F)c2)c1,-4.4,0.8,-5,i,-0.8,0.68,/,-8,-37,-2.2
Cc1ccc(S(=O)(=O)CC(=O)c2ccc(C(C)(C)C)cc2)cc1,/,-1.8,0,/,-0.9,0.7,0,/,/,/
CCOC(=O)c1c(C)[nH]c(C(=O)COC(=O)c2cnccn2)c1C,-0.6,7.4,-11,i,0.1,0.63,/,2,5,1.6

# Whole records, looked up by structure:
# `Cc1cc(SCC(=O)N(C)CC(=O)Nc2ccc(F)cc2)nc2ccccc12` across the screens: AF4-AF9 inh = /; UCH37 inh = 3.4; Beta apoptosis = -3; FGF22 binding = /; Bfl-1 A1 inh = -0.7; E coli growth = 0.67; T cruzi repl = 3; rRNA inh HTS = /; rRNA inh HTS OD600 = /; rRNA inh HTS RFP = /
# `CCOC(=O)C1=C(CN2CCC(C)CC2)NC(=O)NC1c1ccc(Cl)cc1` (centres undefined) across the screens: AF4-AF9 inh = -6.1; UCH37 inh = 2.2; Beta apoptosis = -6; FGF22 binding = i; Bfl-1 A1 inh = 0.7; E coli growth = 0.69; T cruzi repl = 12; rRNA inh HTS = 0; rRNA inh HTS OD600 = -4; rRNA inh HTS RFP = -2.9

# Other compounds follow.
SMILES,AF4-AF9 inh,UCH37 inh,Beta apoptosis,FGF22 binding,Bfl-1 A1 inh,E coli growth,T cruzi repl,rRNA inh HTS,rRNA inh HTS OD600,rRNA inh HTS RFP
O=C(NC1CCCCC1)C(c1ccncc1)N(C(=O)c1csnn1)c1ccccc1F (centres undefined),0.9,-0.5,-2,i,0.3,0.68,-16,7,12,0.9
COc1ccc(F)cc1Cn1nc(C(=O)O)c2ccccc2c1=O,-2.4,0.7,6,i,-0.2,0.69,-9,-3,4,-0.5
COc1ccc(C(=O)N2CCCC(Nc3ccc(F)cc3)C2)cc1F (centres undefined),0.4,-0.4,-4,i,-0.2,0.61,-6,3,-4,-0.1
CCOC(=O)c1[nH]c2ccc(OC)cc2c1N=CN(C)C,/,-43,1,/,0.5,0.7,-12,/,/,/
CN(C)S(=O)(=O)c1cccc(NC(=S)N/N=C/c2cccc(O)c2)c1,2.2,/,-7,i,0.1,/,-6,0,0,-4.2
c1ccc(-c2nnc3n2N=C(c2ccc4c(c2)OCO4)CS3)nc1,5.8,7.7,0,i,-0.8,0.65,-12,10,8,-11
COCCn1c(SCC(=O)Nc2cc(C)nn2-c2ccccc2)nnc1-c1ccncc1,1.1,-2.9,1,i,1.7,0.67,7,0,4,-5.5
Cc1cccc(OCCCCc2c(C)n[nH]c2C)c1,/,3.0,0,/,0.2,0.66,-14,/,/,/
Cc1ccc(-c2csc3nc(SCC(=O)Nc4ccc(Cl)c(C(=O)O)c4)[nH]c(=O)c23)cc1,-3.4,1.1,-4,i,-0.6,0.72,-2,-11,-12,-0.2
COC(=O)CC1C(C(=O)OC)ON2OC(C(=O)OC)C(C(=O)OC)C12 (centres undefined),-2.6,4.0,-5,i,-0.2,0.69,-1,6,8,0.9
O=C(NCc1ccco1)c1cccc(S(=O)(=O)N2CCN(Cc3ccccc3)CC2)c1,3.0,2.1,-2,i,0.2,0.69,13,1,-6,1.1
